YopH inh – blocks Yersinia enterocolitica YopH tyrosine phosphatase; fluorescence Ex485/Em525; inhibition, %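 (about 10 µM by stock and volumes)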; 140,000 compounds, 0.16% hits; AID 898;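 active means inhibition of 50% or more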;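 further: controls were vehicle for no effect and minimum signal wells for full effect; inactives centre near -20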
Mtb bLac sens – beta-lactam sensitization of Mtb H37Rv | AID 434955 | inhibition, % at 25 µM | 330,000 compounds, 0.27% hits | M. tuberculosis H37Rv growth with meropenem, percent inhibition; hits of this screen are not shown here;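 active means about 74% or more and at least 40 points above the plate without the antibiotic, then above 30% in a dose series; inconclusive means first-round hits that could not be retested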;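 further: growth measured after seven days incubation then overnight dye step; 0% = bacteria only wells and 100% = bacteria with antibiotic; twin plates without the antibiotic show which effects depend on it; some results filed as inactive read as strong as hits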
RecA splice inh – Mtb RecA intein splicing inhibition. P9WHJ3. cell-free RecA intein splicing, fluorescence. inhibition, %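 (about 9 µM by stock and volumes)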. 290,000 compounds, 0.75% hits. AID 2221; in the data active means inhibition above about 30%; inconclusive means no clear call, values can overlap the other calls;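 further: 0% = vehicle wells and 100% = reference inhibitor control wells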
Target sequence (P9WHJ3 whole entry, looked up, canonical isoform): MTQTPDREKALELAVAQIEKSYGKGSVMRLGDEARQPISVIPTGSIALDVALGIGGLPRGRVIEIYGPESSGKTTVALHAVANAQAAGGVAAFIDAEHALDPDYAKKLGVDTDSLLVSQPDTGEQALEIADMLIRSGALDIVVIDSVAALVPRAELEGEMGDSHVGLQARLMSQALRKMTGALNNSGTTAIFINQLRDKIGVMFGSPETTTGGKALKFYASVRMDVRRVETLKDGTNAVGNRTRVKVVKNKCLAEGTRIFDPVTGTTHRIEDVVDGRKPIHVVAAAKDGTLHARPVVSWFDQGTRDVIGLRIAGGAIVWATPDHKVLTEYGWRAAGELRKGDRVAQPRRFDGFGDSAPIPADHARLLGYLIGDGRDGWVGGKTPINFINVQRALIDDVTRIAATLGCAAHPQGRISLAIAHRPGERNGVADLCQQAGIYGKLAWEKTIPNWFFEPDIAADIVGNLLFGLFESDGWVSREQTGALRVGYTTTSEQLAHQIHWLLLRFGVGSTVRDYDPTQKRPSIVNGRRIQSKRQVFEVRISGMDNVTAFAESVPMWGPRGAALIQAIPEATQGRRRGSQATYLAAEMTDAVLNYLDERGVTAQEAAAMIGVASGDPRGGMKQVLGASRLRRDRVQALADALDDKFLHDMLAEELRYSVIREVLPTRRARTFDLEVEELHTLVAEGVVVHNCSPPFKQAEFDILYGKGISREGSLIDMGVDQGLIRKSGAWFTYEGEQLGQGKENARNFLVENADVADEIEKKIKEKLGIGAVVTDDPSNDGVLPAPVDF
Mtb H37Rv – M. tuberculosis H37Rv growth inhibitors, H37Rv strain (AID 1626) | M. tuberculosis H37Rv growth inhibition; higher % means a stronger effect | one-dose inhibition, % at 10 µM; IC50 in µM for titrated hits | 220,000 compounds, 0.95% hits;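 active means confirmed in a dose series; inconclusive means inhibition above 80% but not taken into the dose series; inactive means below 80% or under 30% at every dose of the series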;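 further: bacteria incubated seven days before Alamar blue readout; 0% = bacteria only wells and 100% = bacteria with antibiotic wells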
Arbovirus inh – antivirals against arbovirus infection. 200,000 compounds, 0.37% hits. AID 1251. arbovirus infection cell-based antiviral screen. inhibition, % at 10 µM;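 active means inhibition from about 30%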;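 further: bluetongue infection of BSR cells; cell survival read as ATP light after 72 h; 0% = infected wells without compound and 100% = uninfected wells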
An asterisk follows results filed as active; u = inconclusive; x = no result given. A portion of the library; count on the stated rates, not on these rows.

Every second line gives: YopH inh	Mtb bLac sens	RecA splice inh	Mtb H37Rv	Arbovirus inh
> N#CCCCCN1c2cccc3cccc(c23)S1(=O)=O
  -34	-7	2.1	3%	10
> O=C(O)Cc1ccc(C(=O)c2ccc(F)cc2)s1
  5	-8	-3.2	-10%	2
> CCc1ccc(NC(=O)N2CCc3ccccc3C2)cc1
  x	2	3.6	x	x
> O=C(Nc1ccn(Cc2ccccc2)n1)c1ccc2c(c1)OCO2
  x	53	-0.3	u	-24
> COCC(C)NC(=O)c1ccc(CN2CCc3ccccc3C2)cc1 (stereo not given)
  x	-9	0.7	0%	-2
> COc1ccc(-c2csc(Nc3ccc(S(=O)(=O)Nc4cc(C)on4)cc3)n2)cc1
  x	19	10	0%	30*
> CC(C)Cc1ccc(CN2CCCC(NC(=O)Cn3cnnn3)C2)cc1 (stereo not given)
  x	u	2.0	x	x
> Cc1ccc(C)c(S(=O)(=O)Nc2cc3c4c(c2)CCC(=O)N4CCC3)c1
  x	-6	-1.9	x	x
> O=C(N/N=C/c1ccccc1Cl)c1n[nH]c2c1CCCC2
  -14	-4	-0.7	-1%	-5
> Cc1ccc(C2(c3noc(CN4CCC(c5ccncc5)CC4)n3)CCCC2)cc1
  x	4	x	14%	-23
> Cc1ccc(S(=O)(=O)n2nc(OC(=O)c3cccs3)cc2N)cc1
  -48	-1	24	5%	0
> Cc1nc(-c2ccccc2)cc(-c2ccccc2)n1
  x	0	5.9	x	x
> Cc1cccc(-n2nc3c(c2NC(=O)c2ccc(S(=O)(=O)N4CCOCC4)cc2)CSC3)c1C
  -45	x	x	x	0
> O=C(c1cccc(F)c1)N1CCN(C2CCCCC2)CC1
  -7	21	0.2	5%	-2
> COc1ccc(OCC(O)CNCc2ccco2)cc1 (stereo not given)
  -30	-11	-1.0	0%	8
> CN1C[C@@H]2C[C@@H](c3ccc(C#CC(C)(C)O)s3)N3CCC[C@@]23C1=O
  x	-8	x	-4%	4
> Nc1nnc(CC(=O)Nc2ccccc2)s1
  x	-7	-2.7	13%	x
> COC(=O)NCc1cc2cc(Cl)ccc2[nH]1
  -9	7	-0.5	7%	-1
> O=c1c(-c2ccc(O)cc2)coc2cc(OC3OC(CO)C(O)C(O)C3O)cc(O)c12 (stereo not given)
  -22	4	3.5	0%	-5
> N/C(=N\OC(=O)COc1ccc2ccccc2c1Br)c1ccncc1
  x	4	8.2	3%	-6
> CC1(C)NC(=O)N(CN2C(=O)NC(C)(C)C2=O)C1=O
  -2	3	-3.1	-7%	3
> COc1ccc(S(=O)(=O)N(CC(=O)NCc2ccccn2)Cc2ccccc2)cc1
  x	-9	1.8	x	x
> COc1ccc(CC(=O)Nc2ccc(C(=O)NC(C)(C)C)cc2)cc1
  -31	-3	-12	4%	0
> Cc1ccnc(NC(=O)CCC(=O)c2cc(C)sc2C)c1
  x	-9	-1.1	x	x
> CCCC(=O)Nc1nc2ccc(C(=O)OCC)cc2s1
  -43	-4	-2.2	13%	-1
> COc1ccccc1CCC(=O)NC1CCCN(c2ccc(C(F)(F)F)cn2)C1 (stereo not given)
  x	0	0.0	x	x
> COc1ccc(C=O)cc1COc1c(F)c(F)cc(F)c1F
  -25	-3	1.0	-9%	6
> O=C(c1ccc(Cn2cc(Cl)cn2)o1)N1CCN(Cc2ccc3c(c2)OCO3)CC1
  -4	0	0.7	15%	7
> N#Cc1c(-c2ccccc2)cc(-c2ccccc2)nc1SCC(=O)O
  x	-3	0.3	x	x
> CCCN(C(=O)CSc1n[nH]c(-c2ccc(OC)cc2)n1)c1c(N)n(Cc2ccccc2)c(=O)[nH]c1=O
  x	-7	2.0	x	x

Next section.
Every second line gives: YopH inh	Mtb bLac sens	RecA splice inh	Mtb H37Rv	Arbovirus inh
> CC(=O)c1c(C(C)=O)c(C)n(-c2nc(-c3ccc(Br)cc3)c(C)s2)c1C
  -21	9	-1.0	-10%	-6
> CCc1noc(C)c1C(=O)N1CCC(CCC(=O)Nc2cccc(OC)c2)CC1
  x	7	3.2	x	x
> CCOC(=O)C(NC(=O)CCl)(Nc1sc(C)c(CC)c1C#N)C(F)(F)F (stereo not given)
  -15	-8	26	6%	21
> Cc1c(C(=O)c2ccc(Cl)c([N+](=O)[O-])c2)c2ccccn2c1CCC#N
  -20	2	11	1%	-1
> CCCCNC(=O)Cn1cnc2sc(C(=O)OCC)c(C)c2c1=O
  -8	-11	-1.5	-18%	-2
> Cc1ccc(CNC(=O)CSc2ccsc2[N+](=O)[O-])cc1
  x	-5	11	5%	-12
> O=S(=O)(NC(=S)c1ccccc1)c1ccc(F)cc1
  x	-5	0.5	x	x
> O=C(NCCc1ccccc1)c1ccc2c(=O)[nH]c3c(C(=O)NCC4CCCO4)sc(=S)n3c2c1 (stereo not given)
  x	97	-111	x	x
> COc1cc(CCC(=O)OCC(=O)Nc2ccc(C)cc2Br)cc(OC)c1OC
  x	-3	-1.6	x	x
> Cc1cc([N+](=O)[O-])ccc1NC(=O)C(C)NC1CCCCC1 (stereo not given)
  x	-5	0.9	x	x
> O=C(Oc1ccc(N(Cc2cccs2)C2=NS(=O)(=O)c3ccccc32)cc1)c1ccc(Cl)cc1
  -6	-2	-0.2	9%	8
> COc1ccc(C2c3ccc(O)cc3Oc3ncn(Cc4ccccc4)c(=N)c32)cc1OC (stereo not given)
  x	3	3.1	-3%	x
> CN(C)CCOC(=O)c1sc2ccccc2c1Cl
  x	-2	-1.1	-2%	5
> C=CCOC(=O)C1=C(C)NC(SCC(=O)Nc2nccs2)=C(C#N)C1c1cccs1 (stereo not given)
  -11	90	-13	-1%	-24
> COc1ccc(-c2cc3cccc(OC)c3oc2=O)cc1
  x	5	-2.6	x	x
> O=C(Nc1ncc(S(=O)(=O)c2ccc([N+](=O)[O-])cc2)s1)c1cccc2ccccc12
  -23	-4	1.9	9%	-3
> O=C(Nc1ccc(N2CCOCC2)cc1)c1ccc(S(=O)(=O)N2CCCCC2)cc1
  -45	5	-1.9	x	1
> CCc1noc(C)c1C(=O)NCCc1ccc(OC)c(OC)c1
  -38	0	0.6	1%	-3
> COc1cc2c(cc1OC)CN(c1nc(CN3CCOCC3)nc3sc4c(c13)CCC(C)C4)CC2 (stereo not given)
  7	100	5.2	8%	-27
> COc1ccc(S(=O)(=O)NCC2CCCO2)cc1NC(=O)c1ccccc1 (stereo not given)
  x	7	-0.5	x	x
> Cc1cccc(-c2oc3ccccc3c2C#CCCO)c1
  x	11	8.7	x	x
> Cc1oc(S(=O)(=O)N2CCOCC2)cc1C(=O)Nc1ccc(Cl)cc1
  x	-5	-0.1	6%	x
> N#Cc1cc2c(nc1SCc1cccnc1)CCCCC2
  -7	-4	4.4	-7%	6
> CCCNC(=O)NC1CCCc2ccccc21 (stereo not given)
  x	-5	-0.8	-8%	8
> CCOc1ccc(N2C(=O)Nc3ccccc3C2(O)C(=O)N2CCN(c3ccccn3)CC2)cc1 (stereo not given)
  x	-11	0.4	0%	-3
> Cc1sc2ncnc(Sc3nc4ccccc4s3)c2c1C
  -24	-1	-2.2	3%	-2
> CN(CC(=O)NCCc1ccccc1)S(=O)(=O)c1ccc(Br)cc1
  -1	1	-1.0	-5%	8
> O=C1CCCCN1CCCC(=O)N1CCCC(Nc2ccccc2)C1 (stereo not given)
  x	1	1.6	x	x
> Cc1ccc(C(=O)NC2CCCCCCC2)c(Cl)c1
  x	6	2.4	x	x
> O=C1C2C3C=CC(C3)C2C(=O)N1c1ncn[nH]1 (stereo not given)
  -60	-3	1.2	-4%	-2

In a second layout: results already given
mol	YopH inh	Mtb bLac sens	RecA splice inh	Mtb H37Rv	Arbovirus inh
CN(C)CCOC(=O)c1sc2ccccc2c1Cl	x	-2	-1.1	-2%	5
C=CCOC(=O)C1=C(C)NC(SCC(=O)Nc2nccs2)=C(C#N)C1c1cccs1 (stereo not given)	-11	90	-13	-1%	-24
COc1ccc(-c2cc3cccc(OC)c3oc2=O)cc1	x	5	-2.6	x	x
O=C(Nc1ncc(S(=O)(=O)c2ccc([N+](=O)[O-])cc2)s1)c1cccc2ccccc12	-23	-4	1.9	9%	-3
O=C(Nc1ccc(N2CCOCC2)cc1)c1ccc(S(=O)(=O)N2CCCCC2)cc1	-45	5	-1.9	x	1
CCc1noc(C)c1C(=O)NCCc1ccc(OC)c(OC)c1	-38	0	0.6	1%	-3
COc1cc2c(cc1OC)CN(c1nc(CN3CCOCC3)nc3sc4c(c13)CCC(C)C4)CC2 (stereo not given)	7	100	5.2	8%	-27
COc1ccc(S(=O)(=O)NCC2CCCO2)cc1NC(=O)c1ccccc1 (stereo not given)	x	7	-0.5	x	x
Cc1cccc(-c2oc3ccccc3c2C#CCCO)c1	x	11	8.7	x	x
Cc1oc(S(=O)(=O)N2CCOCC2)cc1C(=O)Nc1ccc(Cl)cc1	x	-5	-0.1	6%	x
N#Cc1cc2c(nc1SCc1cccnc1)CCCCC2	-7	-4	4.4	-7%	6
CCCNC(=O)NC1CCCc2ccccc21 (stereo not given)	x	-5	-0.8	-8%	8
CCOc1ccc(N2C(=O)Nc3ccccc3C2(O)C(=O)N2CCN(c3ccccn3)CC2)cc1 (stereo not given)	x	-11	0.4	0%	-3
Cc1sc2ncnc(Sc3nc4ccccc4s3)c2c1C	-24	-1	-2.2	3%	-2
CN(CC(=O)NCCc1ccccc1)S(=O)(=O)c1ccc(Br)cc1	-1	1	-1.0	-5%	8
O=C1CCCCN1CCCC(=O)N1CCCC(Nc2ccccc2)C1 (stereo not given)	x	1	1.6	x	x
Cc1ccc(C(=O)NC2CCCCCCC2)c(Cl)c1	x	6	2.4	x	x
O=C1C2C3C=CC(C3)C2C(=O)N1c1ncn[nH]1 (stereo not given)	-60	-3	1.2	-4%	-2

Next part
Keys – A = YopH inh; B = Mtb bLac sens; C = RecA splice inh; D = Mtb H37Rv; E = Arbovirus inh
> OC(c1ccccc1)C1CN(Cc2ccccc2)CCC1(O)c1ccccc1 (stereo not given)
  A: 31 | B: -2 | C: 1.6 | D: -6% | E: 33*
> COc1cc(/C=N/NC(=O)CCC(=O)Nc2ccc(F)cc2)ccc1O
  A: x | B: -8 | C: -3.7 | D: x | E: x
> CN1CCN(C(=O)c2ccc3c(c2)NC(=O)/C(=C/c2ccccc2)S3)CC1
  A: x | B: 2 | C: 3.9 | D: x | E: x
> O=C1C2C3c4ccccc4C(c4ccccc43)C2C(=O)N1CN1CCOCC1 (stereo not given)
  A: -67 | B: -3 | C: -0.4 | D: -7% | E: -3
> Cc1ccc(NC(=O)N2CCCC2c2cccs2)cc1 (stereo not given)
  A: x | B: 13 | C: 1.4 | D: -1% | E: 0
> COc1ccc(CCNC(=O)c2ccc(CN3CCC(Cc4ccccc4)CC3)cc2)cc1
  A: -25 | B: 68 | C: -0.2 | D: >100µM* | E: -8
> O=C(Nc1nnc(-c2cc(Cl)ccc2Cl)o1)c1ccco1
  A: x | B: 83 | C: -2.9 | D: x | E: x
> O=C(COc1ccc(Cl)cc1Cl)N1CCCCCC1
  A: -32 | B: 1 | C: -3.2 | D: 13% | E: 0
> Cc1cccc(C)c1NS(=O)(=O)c1ccc(OCCNS(C)(=O)=O)cc1
  A: x | B: -7 | C: 5.3 | D: -3% | E: 6
> O=C(c1ccc(NS(=O)(=O)c2ccc(F)cc2)cc1)N1CCCCCC1
  A: x | B: 4 | C: -3.0 | D: x | E: x
> COc1ccc(S(=O)(=O)N/N=C\c2ccccc2F)cc1
  A: x | B: 1 | C: 2.6 | D: x | E: x
> CN(C)c1cc[n+](CC(=O)c2ccc(Br)cc2)cc1
  A: x | B: 2 | C: 3.6 | D: -2% | E: -2
> COCCCn1c(C)nnc1-c1cnn(-c2ccccc2)c1N
  A: x | B: -1 | C: -0.3 | D: 3% | E: 13
> Cc1cc(C(=O)CSc2nc3ccccc3c(=O)n2C)c(C)n1Cc1ccc2c(c1)OCO2
  A: -19 | B: -2 | C: x | D: 6% | E: -15
> CC(=O)NS(=O)(=O)c1ccc(NC(=O)CCC2CCCC2)cc1
  A: -19 | B: -5 | C: 2.3 | D: 0% | E: 1
> O=C1NC2(CCCC2)C(=O)N1CCS(=O)(=O)Oc1ccccc1
  A: x | B: 2 | C: 2.0 | D: 6% | E: 8

High-throughput results deposited in PubChem BioAssay by several laboratories.
